# Ecoli rRNA inh: selective bacterial rRNA inhibition in E. coli; AID 720706; E. coli WT GFP vs humanized-ribosome RFP mutants, fluorescence, 24 h; active compounds read low; DMSO median 0, no signal -100; GFP signal change (wild-type ribosome), % (concentration not given with the values); actives 1.6% (n = 350,000);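 active means significant combined selectivity score with lowered wild-type GFP, culture density cut under 30%, mutant RFP and density less affected; inactive means any of these conditions unmet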; further: one replicate is shown; some compounds called inactive have numbers as strong as hits
# FGF22 binding: shifts melting point of recombinant human FGF22 | Q9HCT0 | calls only at 9.99 µM | recombinant FGF22 thermal shift, SYPRO orange fluorescence; percent of sucrose octasulfate shift, DMSO zero | actives 1.5% (n = 340,000);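 active means melting point raised past a set limit in the mean and every replicate; three in four hits are not shown here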
# B2AR ag: human beta-2 adrenergic receptor agonism by FAP; AID 504454; response, % (no concentration beside the values); actives 0.43% (n = 340,000); P07550; Am2.2-beta2AR cells, FAP receptor internalization, flow cytometry; reference of the scale not given here;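 active means response above a set limit, near 3 SD of response in nonfluorescent compounds, cut at about 42% in these data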;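 further: stock transfer was 100 nL into about 11 µL; a reference agonist was the positive control; negative values mostly stem from fluorescent compounds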
# UCH37 inh: inhibitors of human deubiquitinating enzyme UCH37; Q9Y5K5; purified proteasome/UCH37, Ub-AMC cleavage fluorescence; inhibition, % (concentration not given with the values); actives 0.33% (n = 330,000); AID 588478;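 active means mean of two replicates above 20%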;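 further: 0% = compound-free wells with enzyme and 100% = wells lacking proteasome; stock transfer was 100 nL into about 20 µL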
# Target sequence (Q9Y5K5 whole entry, looked up): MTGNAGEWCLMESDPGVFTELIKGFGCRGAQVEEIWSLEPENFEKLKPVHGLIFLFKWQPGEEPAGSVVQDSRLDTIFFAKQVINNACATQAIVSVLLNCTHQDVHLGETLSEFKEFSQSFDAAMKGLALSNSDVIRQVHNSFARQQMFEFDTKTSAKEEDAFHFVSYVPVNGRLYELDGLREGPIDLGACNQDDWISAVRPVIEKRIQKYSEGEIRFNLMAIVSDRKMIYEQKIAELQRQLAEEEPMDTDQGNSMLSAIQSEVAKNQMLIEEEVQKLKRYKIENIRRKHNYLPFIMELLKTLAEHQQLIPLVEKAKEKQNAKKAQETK
#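 Reagent: Ub-AMC substrate; assay system: Proteasome-associated human UCH37 deubiquitinase; controls: no-proteasome and no-compound wells; read-out: % inhibition of Ub-AMC cleavage fluorescence; timing: 30 min preincubation with enzyme, 25 min cleavage at room temperature; signal: AMC fluorescence from Ub-AMC cleavage, excitation 355 nm, emission 460 nm; buffer or medium: Tris-HCl pH 7.4 plus ovalbumin, ATP-MgCl2, DTT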
# ALR H2O2 inh: inhibitors of human sulfhydryl oxidase ALR; actives 3.8% (n = 290,000); inhibition, % (test concentration not listed); purified ALR, DTT oxidation, H2O2 HRP-luminol luminescence; P55789;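 active means mean and each replicate at 75% or more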;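 further: stock transfer was 7.5 nL into about 7.5 µL; 0% = neutral wells and 100% = wells with inactivated enzyme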
# Target sequence (P55789 whole entry, looked up): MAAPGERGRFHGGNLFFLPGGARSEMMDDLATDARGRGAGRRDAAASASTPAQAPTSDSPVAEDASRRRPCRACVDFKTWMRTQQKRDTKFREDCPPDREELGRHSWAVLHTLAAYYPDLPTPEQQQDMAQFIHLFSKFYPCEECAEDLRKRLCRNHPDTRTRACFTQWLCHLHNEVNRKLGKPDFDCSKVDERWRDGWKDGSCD
# HNF4A DNA FP: change in binding of human HNF4 alpha to DNA; P41235; HNF4a-FITC DNA binding, fluorescence polarization, 1 h; actives 0.3% (n = 360,000); activity change, % at 10 µM; in the data active means activity change above about 30%, passing the limit was not always enough;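 further: controls were the assay level and a saturating level of protein; the project sought stronger binding though the title names inhibitors; some compounds called inactive have numbers as strong as hits; positive values seem to mean higher polarization but the record does not say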
# Target sequence (P41235 whole entry, looked up): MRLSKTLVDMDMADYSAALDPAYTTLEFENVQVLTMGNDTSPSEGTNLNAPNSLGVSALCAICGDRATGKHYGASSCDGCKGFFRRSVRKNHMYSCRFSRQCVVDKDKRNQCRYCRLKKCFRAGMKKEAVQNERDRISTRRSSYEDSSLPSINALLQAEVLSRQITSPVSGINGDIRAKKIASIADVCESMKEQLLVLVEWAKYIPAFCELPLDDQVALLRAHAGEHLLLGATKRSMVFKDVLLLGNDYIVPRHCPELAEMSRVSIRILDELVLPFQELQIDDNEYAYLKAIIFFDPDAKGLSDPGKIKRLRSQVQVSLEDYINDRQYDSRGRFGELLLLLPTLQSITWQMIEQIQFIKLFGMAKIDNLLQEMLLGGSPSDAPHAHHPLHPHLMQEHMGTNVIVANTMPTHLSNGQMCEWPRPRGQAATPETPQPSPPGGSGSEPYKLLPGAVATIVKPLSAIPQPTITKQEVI
# Ecoli growth: blocks Escherichia coli growth | OD600 absorbance (test concentration not listed) | AID 1053175 | actives 0.21% (n = 330,000) | OD600, 23 h; active compounds read low;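 active means OD600 absorbance below the run mean of sample wells minus 3.6 SD, in any replicate, cut at about 0.56 in these data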;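 further: stock transfer was 300 nL into about 60 µL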
# Ecoli rRNA inh OD600: further read-out of Ecoli rRNA inh, marked with its call; OD600 change, %; measured here: OD600 growth;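 optical density of the mix in the first replicate; 0 = DMSO median and -100 = no signal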
# Ecoli rRNA inh RFP: further read-out of Ecoli rRNA inh, marked with its call; RFP signal change, %; measured here: RFP humanized mutant strains;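 first replicate; 0 = DMSO median and -100 = no signal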
# An asterisk follows results filed as active; i = inactive; · = not tested or not shown; & = joins results of further samples.
# Screens in order – B2AR ag	HNF4A DNA FP	UCH37 inh	FGF22 binding	ALR H2O2 inh	Ecoli growth	Ecoli rRNA inh RFP	Ecoli rRNA inh	Ecoli rRNA inh OD600
COc1ccc(NC(=O)c2cc(C)nc3ccccc23)cc1S(=O)(=O)Nc1ccccc1Cl
→ 5.7	-3.0	2.2	i	-2.8	0.677	4.4	10.7	3.1
CCCNC(=O)COC(=O)c1ccc(S(=O)(=O)N2CCCCCC2)cc1
→ -2.7	0.0	3.2	·	-2.6	0.72	·	·	·
COc1ccc(C)cc1NC(=O)CSc1nnc2ccc(-c3ccccn3)nn12
→ 3.9	-1.6	0.8	i	-4.0	0.657	-1.0	11.9	6.6
Cc1cc(Cl)ccc1NC(=O)Nc1c(C)n(-c2ccccc2)c(=O)n1C
→ -12.2	2.0	-0.2	·	·	0.696	·	·	·
CC[C@@H]1C=C(C(=O)O)[C@H](c2cccc(C)c2)N1S(=O)(=O)c1ccc(C)cc1
→ 2.0	2.5	1.7	i	·	0.649	6.5	9.0	11.0
O=C(COC(=O)c1ccc(CN2CCCC2=O)cc1)Nc1ccc(F)cc1
→ -10.3	1.8	2.0	i	-19.8	0.688	0.5	2.8	0.7
N/C(=N\OC(=O)C12CC3CC(CC(C3)C1)C2)c1ccccn1
→ -22.1	-0.3	4.4	·	4.6	0.64	·	·	·
O=C(Nc1nn(Cc2ccc(Cl)cc2)cc1Br)c1ccc(COc2ccccc2Cl)o1
→ -2.4	-1.1	1.1	·	37.7	0.761	·	·	·
CCCCNC(=O)c1onc(CSc2cccc(F)c2)c1C(=O)O
→ -2.7	-1.1	-1.1	i	36.9	0.675	4.6	-27.1	-28.6
Cn1nc(C(=O)NC2CCCC2)c2ccccc2c1=O
→ 2.6	1.6	0.8	i	·	0.696	-1.9	5.2	7.6
CCCNC(=O)Cn1nc(C(F)(F)F)c2c1CCC2
→ -4.1	4.5	-1.9	i	0.2	0.709	-0.8	6.7	8.4
Cc1nc2c(-c3ccc(F)cc3)c(C)nn2c(C)c1CCC(=O)N1CCN(c2ccc(F)cc2)CC1
→ -5.8	1.9	6.4	i	-12.0	0.753	3.7	-6.7	-15.5
Cc1cc([N+](=O)[O-])nn1Cc1noc(C(=O)NCCc2ccccn2)n1
→ 1.4	-1.3	1.2	i	-0.6	0.699	-3.4	-5.2	14.5
COc1ccc(S(=O)(=O)Nc2cccc3c2O[C@H](CN(C)S(=O)(=O)c2cn(C)cn2)[C@@H](C)CN([C@H](C)CO)C3=O)cc1
→ -0.2	0.7	-0.5	i	-12.5	·	-5.0&-1.3	2.5&1.8	-0.1&15.1
COCCCNC(=O)c1cc(C)nn1-c1ccccc1
→ -3.9	4.5	2.4	i	·	0.729	-3.0	1.4	0.2
COCc1ccc(C(=O)N2CCCC(CNC(=O)c3ccc(F)cc3)C2)o1 (stereo unspecified)
→ 3.0	1.9	1.5	i	-10.1	0.667	1.5	15.4	12.9
C=C1c2ccccc2NC(=O)N1c1ccc(C)cc1
→ 25.0	-1.1	1.5	·	0.0	0.763	·	·	·
COc1ccc(N(CC(=O)NCc2ccccc2Cl)S(=O)(=O)c2c(C)noc2C)cc1
→ -0.5	2.6	3.6	i	2.1	0.709	2.3	-5.3	-21.2
C/C(=N\NC(=O)c1ccccc1)c1ccc(NC(=O)c2cccs2)cc1
→ -2.7	-2.9	·	i	·	·	-1.6	15.2	16.6
O=C(O)CCN1C(=O)c2ccc(NC(=O)c3ccco3)cc2C1=O
→ 7.6	-0.8	-48.7	i	-2.5	0.648	-2.7	11.8	11.7

# 2 entries from above, with each value named.
Cc1nc2c(-c3ccc(F)cc3)c(C)nn2c(C)c1CCC(=O)N1CCN(c2ccc(F)cc2)CC1
  B2AR ag: -5.8	HNF4A DNA FP: 1.9	UCH37 inh: 6.4	FGF22 binding: i	ALR H2O2 inh: -12.0	Ecoli growth: 0.753	Ecoli rRNA inh RFP: 3.7	Ecoli rRNA inh: -6.7	Ecoli rRNA inh OD600: -15.5
COCCCNC(=O)c1cc(C)nn1-c1ccccc1
  B2AR ag: -3.9	HNF4A DNA FP: 4.5	UCH37 inh: 2.4	FGF22 binding: i	ALR H2O2 inh: ·	Ecoli growth: 0.729	Ecoli rRNA inh RFP: -3.0	Ecoli rRNA inh: 1.4	Ecoli rRNA inh OD600: 0.2

# Remaining list, next part.
# Screens in order – B2AR ag	HNF4A DNA FP	UCH37 inh	FGF22 binding	ALR H2O2 inh	Ecoli growth	Ecoli rRNA inh RFP	Ecoli rRNA inh	Ecoli rRNA inh OD600
Cc1ccc2cc(C)c(N3CCN(c4ccccn4)CC3)nc2c1
→ 1.5	-5.7	-9.2	·	0.6	0.615	·	·	·
O=C(CSc1nc2ccccc2c(=O)n1NC(=O)Cc1ccccc1)NCc1ccccc1
→ 7.8	-1.9	1.3	·	-15.1	0.674	·	·	·
O=C(O)CCc1nn2c3ccccc3nc2n(Cc2ccccc2)c1=O
→ -14.4	4.8	-6.7	i	-8.8	0.666	4.9	11.1	8.3
C(=C\c1ccccc1)/C=N/N1CCN(c2ccccn2)CC1
→ -4.3	2.6	·	·	-2.1	·	·	·	·
CCOc1ccc(S(=O)(=O)NCCCN2CCCC2=O)cc1
→ 12.2	-0.4	1.4	i	-8.4	0.697	3.1	14.1	20.9
Cc1nc2cc(-c3cccc(F)c3)nn2c(N2CCN(C(=O)c3ccco3)CC2)c1C
→ 5.6	2.0	·	·	-4.9	·	·	·	·
OC(COCc1ccc(Cl)cc1)CN1CCc2ccccc2C1 (stereo unspecified)
→ -5.9	-3.2	2.4	·	-3.4	0.693	·	·	·
O=C(CSc1n[nH]c(-c2cccs2)n1)NC1CCS(=O)(=O)C1 (stereo unspecified)
→ 3.1	-0.1	3.3	i	-3.8	0.698	-0.7	8.1	10.1
CN(CCC#N)C(=O)COC(=O)c1c2c(nc3ccccc13)/C(=C/c1ccco1)CC2
→ 19.9	-11.0	-10.9	·	-35.6	·	·	·	·
O=C(Cc1nn[nH]n1)Nc1cc(Cl)cc(Cl)c1
→ -4.5	-3.6	2.7	i	-23.7	0.672	3.6	0.9	-1.0
CCO/C=C/C(=O)N(C)CCC#N
→ -3.8	1.9	-1.7	·	-0.2	0.765	·	·	·
CCC(C(=O)NCc1ccccn1)n1c2ccccc2c2nc(=O)cc(C)n21 (stereo unspecified)
→ -3.2	1.4	-1.3	i	-5.9	0.704	11.7	5.2	2.1
CCOC(=O)c1[nH]c2ccc(Br)cc2c1NC(=O)CCN1CCOCC1
→ 4.9	3.4	2.4	i	-9.9	0.633	-0.3	-6.1	-1.5
O=C(Nc1ccc(S(=O)(=O)N2CCOCC2)cc1)c1ccc2c(c1)S(=O)(=O)c1ccccc1C2=O
→ 6.7	-1.4	3.7	i	-1.8	0.739	-3.0	11.8	10.1
COCCNC(=O)CSc1nc(-c2ccccc2)c(-c2ccccc2)o1
→ 1.1	-3.7	1.1	i	-5.9	0.621	-6.7	-27.1	-24.6
COC(=O)[C@]1(Cc2ccccc2)N[C@H](CN(C)S(=O)(=O)c2ccc(C(C)(C)C)cc2)[C@@H]2C(=O)N(Cc3ccccc3)C(=O)[C@@H]21
→ 0.9	1.0	4.2	i	·	0.762	0.5	24.6	7.5
COc1cccc(-c2nc(CS(=O)(=O)CC(=O)NC3CCCCC3C)c(C)o2)c1 (stereo unspecified)
→ 10.1	-0.1	0.7	i	93.1*	0.664	0.7	2.9	-0.8
Cc1cc(C)c(C#N)c(OCC2CCCO2)n1 (stereo unspecified)
→ ·	-0.2	·	i	·	·	0.3	2.2	8.7
CC1(C)CC(=O)C(C(c2cc([N+](=O)[O-])ccc2Cl)C2C(=O)CC(C)(C)CC2=O)C(=O)C1
→ 1.5	1.4	4.1	i	-2.3	0.643	-5.0	1.4	5.8
COc1cccc(NC(=O)CSc2ccc3nnc(-c4cccnc4)n3n2)c1
→ -1.8	-0.7	0.7	i	-8.4	0.715	-1.6	6.2	4.3
O=C(/C=C/c1ccc(OC(F)F)cc1)OCC(=O)N1CCN(C(=O)c2ccco2)CC1
→ -5.3	-4.1	-1.6	·	6.7	0.672	·	·	·
O=C(COC(=O)C1CCN(c2ccc(C(F)(F)F)cn2)CC1)NCc1cccc(Cl)c1
→ -1.4	-1.4	2.5	·	·	0.698	3.7	-14.7	-40.4
CCOc1ccc(C(=O)NCC(=O)OCC(=O)Nc2ccccc2OCC)cc1
→ -0.7	3.7	-0.4	·	-2.1	0.745	·	·	·
COc1cc(NC2c3ccccc3C(=O)N2c2cc(C)ccn2)cc(OC)c1OC (stereo unspecified)
→ 2.9	-0.3	3.1	i	95.0*	0.804	-7.8	5.4	6.9
NC(=O)c1nsc(C(=O)N(c2ccccc2)C(C(=O)NCc2ccc(F)cc2)c2ccco2)c1N (stereo unspecified)
→ 5.5	-0.6	-137.9	i	-2.3	0.681	-2.1	7.4	8.4
c1ccc(Sc2ccccn2)cc1
→ -1.0	-3.0	13.4	i	-2.7	0.59	·	·	·
O=c1c2sc(-c3ccccc3)cc2nc2n1CCCCC2
→ -9.3	1.1	0.0	i	15.1	0.642	·	·	·
CCN1C(=O)N/C(=C/c2cc(C)n(Cc3ccccc3)c2C)C1=O
→ 6.7	1.0	-3.3	i	·	0.736	0.0	3.0	5.1
CCOC(=O)Cc1nnc(NC(=O)COc2ccc(C)cc2)s1
→ 1.8	1.5	-0.5	·	-5.9	0.708	·	·	·
Cc1cscc1-c1cc2nc(NCCCN(C)C)n(C)c(=O)c2s1
→ ·	-1.4	·	i	·	·	4.0	3.2	4.2
C[C@H](NC(=O)c1nc[nH]c1C(=O)NCC(=O)OCc1ccccc1)c1ccccc1
→ 2.2	0.3	5.0	i	53.0	0.788	9.3	-11.1	-11.1
CCCOc1ccc(C(=O)CCC(=O)OCC(=O)N2CC(=O)Nc3ccccc32)cc1
→ -7.3	5.6	3.0	·	-19.7	0.697	·	·	·
Nc1cc(S(=O)(=O)N2CCCCC2)ccc1N1CCCCC1
→ -1.6	-0.6	-1.6	i	·	0.664	-0.3	-9.9	-24.4
O=C(O)COc1ccc(/C=N/NC(=O)Cc2ccc(Cl)cc2)cc1
→ -7.8	1.2	·	i	25.1	·	-1.1	3.7	12.4
COc1cc(C=O)ccc1OC(=O)c1ccncc1
→ -5.2	-0.4	2.7	i	41.6	0.725	-2.5	-0.6	-0.2
COCCN(C(=O)c1ccccc1OC1CCN(S(C)(=O)=O)CC1)C(C)C
→ -0.2	0.6	-0.2	i	-3.4	0.691	-1.6	6.5	1.8
COC(=O)CC1CC2(C(=O)OC)c3[nH]c4ccccc4c3CCN2C1=O (stereo unspecified)
→ ·	0.4	·	i	·	·	1.1	1.5	-0.6

# Sorted by the number under Ecoli rRNA inh (rising): 4 of the compounds above.
SMILES	Ecoli rRNA inh
CCOC(=O)c1[nH]c2ccc(Br)cc2c1NC(=O)CCN1CCOCC1	-6.1
Cc1cc([N+](=O)[O-])nn1Cc1noc(C(=O)NCCc2ccccn2)n1	-5.2
COc1cccc(-c2nc(CS(=O)(=O)CC(=O)NC3CCCCC3C)c(C)o2)c1 (stereo unspecified)	2.9
O=C(Nc1ccc(S(=O)(=O)N2CCOCC2)cc1)c1ccc2c(c1)S(=O)(=O)c1ccccc1C2=O	11.8

# Not all compounds are listed; the hit share may differ from the screen's.
